# Rango release inh: inhibition of RanGTP-driven Rango-importin beta dissociation; AID 540253; Potency, µM (top dose mostly 46.1 µM), without a hit: at the top dose activity change, negative = inhibition; Biochemical FRET Rango-importin beta, RanGTP-induced dissociation; O95149+P62826; 340,000 tested, 0.071% active; active means falling FRET ratio curve, often poorly fitted, with flat reads before Ran was added; inconclusive means other falling curves, or compound fluorescence or quenching; inactive means flat or rising ratio curve;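 also: potency is read from the fitted curve at half-maximal effect; % of control where 0% means no effect; nearly all actives have a fitted effect of over 45% in size; -100% = wells without RanGTP and RCC1; the record marks most hits as doubtful in a second field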
#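 Rango FRET biosensor (snurportin-1 IBB flanked by N-terminal EYFP and C-terminal CFP10) at 0.1 uM, with 0.25 uM importin beta in PBS, 1mM DTT, 0.02% Tween-20, 0.1% BSA. 0.6 uM Ran, 2mM GTP and 0.2 uM RCC1 were then added for 45 min at room temperature. Inhibition read as loss of FRET rise.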
# GLA inh pH 4.5: inhibitors of human alpha-galactosidase A at pH 4.5; 230,000 tested, under 10 active; activity change, negative = inhibition, % at 105 µM; purified enzyme, 4-MU-alpha-Gal fluorescence, pH 4.5; inconclusive = small, poorly fitted or top-dose-only inhibition, or a rising curve; inactive = flat fitted curve, though single readings scatter; no compound was filed as active;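 also: 0% = full activity with enzyme and -100% = basal without enzyme; dose as in the result columns while the protocol names 77 µM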
# Target sequence (P06280 whole entry, looked up): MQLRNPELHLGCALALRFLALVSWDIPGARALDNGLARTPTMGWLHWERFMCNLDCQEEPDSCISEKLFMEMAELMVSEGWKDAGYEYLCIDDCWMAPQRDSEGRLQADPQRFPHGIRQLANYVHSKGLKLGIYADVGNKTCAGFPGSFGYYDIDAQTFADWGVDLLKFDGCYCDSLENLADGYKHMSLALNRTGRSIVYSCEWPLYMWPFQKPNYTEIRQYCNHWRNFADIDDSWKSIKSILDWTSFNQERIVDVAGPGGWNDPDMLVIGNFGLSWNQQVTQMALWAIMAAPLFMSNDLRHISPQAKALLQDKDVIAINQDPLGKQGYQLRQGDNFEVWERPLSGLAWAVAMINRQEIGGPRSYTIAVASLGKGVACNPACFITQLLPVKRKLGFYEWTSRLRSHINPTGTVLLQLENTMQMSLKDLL
# Rango complex inh: Rango-importin beta binding inhibition; Rango CFP/YFP FRET sensor + importin beta, 45 min; Potency, µM (doses to about 92.2 µM), for the others: top-dose inhibition of complex formation; 340,000 tested, 0.031% active; AID 540263; active = rising FRET ratio curve, often small or poorly fitted; inconclusive = mostly compound fluorescence or quenching in the first reads; inactive = flat curves in all reads;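 also: potency is read from the fitted curve at half-maximal effect; 0% = DMSO wells and 100% = buffer wells lacking importin beta; nearly all actives have a fitted effect of over 15% in size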
#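 Inhibition scored from the CFP 486 nm/YFP 530 nm FRET ratio 45 min after adding 0.125 microM importin beta to 50 nM Rango biosensor preincubated 5 min with compound (room temperature, PBS with DTT, Tween-20, BSA). No-importin wells as positive control.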
# miR-21 reporter: miR-21 reporter, rising signal; HeLa miR-21 FLuc reporter, luciferase, 48 h; Potency, µM (titrated, usually from 38.3 µM), for inactives: at the top dose reporter change, positive = more light; 340,000 tested, under 10 active; active = well fitted rising curve with a large enough effect; inconclusive = small, poorly fitted or top-dose-only effect; inactive = no such curve, though single readings can be large or run the other way;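 also: % of control where 0% means no effect; miR-21 action dims this reporter so a rising signal means less miR-21 action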
#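 Compounds were titrated across several concentrations (up to approximately 40 uM) and incubated 48 hours with HeLa miR-21-FLuc reporter cells (miR-21 target sequence downstream of FLuc, endogenous miR-21). Readout was firefly luciferase luminescence after lytic detection reagent.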
# Numbers without * were called inactive; ? = inconclusive; nt = no result given; & = joins results of further samples. Only part of the results is shown; the hit share may differ from the screen's.
SMILES,Rango release inh,GLA inh pH 4.5,Rango complex inh,miR-21 reporter
Cc1ccccc1NC1=NC(=S)N(c2ccccc2)C12CCOC(C)(C)C2 (centres undefined),1%,9,-1.9%,-1%
CC1=CC(C)(C)N2C(=O)C3(NCCc4c3[nH]c3ccccc43)c3cc(C)cc1c32 (centres undefined),7%,-25,0.3%,18%
Cc1cccc(N2CCN(C(=O)C3CCN(S(=O)(=O)N4CCOCC4)CC3)CC2)c1C,-23%,6,-1.4%,11%
O=C(Cc1ccccc1F)NCC1(N2CCOCC2)CCCCC1,-1%,-4,0.2%,4%
Cc1cc2ncn(C(=O)N3CCC(C)CC3)c2cc1C,1%,2,0.7%,-60%
COCCN(CCOC)S(=O)(=O)c1ccc(C(=O)Nc2nnc(C3CC3)o2)cc1,6%,6,-0.4%,-2%
COc1cc(C(c2c(C)[nH][nH]c2=O)c2c(C)[nH][nH]c2=O)ccc1OS(=O)(=O)c1ccccc1,3%,2,-0.2%,-8%
OCCCNCc1ccc(Cl)cc1Cl,-1%,3,-4.8%,-1%
Cc1ccn2c(c1)nc(=S)n2C(=O)c1ccccc1,15%,0,6.4%,-37%
O=C(COC(=O)C1CCN(c2ccc(C(F)(F)F)cn2)CC1)c1ccccc1Cl,-8%,nt,-0.5%,nt
O=c1[nH]c2ccccc2nc1NCc1ccccc1,?,nt,5.5%,-36%
Cc1ccc(-c2cc(C(=O)OCn3nnc4ccccc4c3=O)c3ccccc3n2)cc1,-2%,-4,4.6%,0%
CC(C)(C)c1ccc(C(=O)N2CCC3(CC2)NCCc2[nH]cnc23)cc1,-7%,nt,0.1%,-6%
O=C(CN1CCN(c2ccc(O)cc2)CC1)NC(c1ccccc1)c1ccccc1,-10%,0,-3.8%,-9%
CCOC(=O)c1c(NC(NC(C)=O)C(Cl)(Cl)Cl)sc(C(C)=O)c1C (centres undefined),0%,-20,2.3%,10%
Cc1ccnc(NC(=S)NC(=O)/C=C/c2ccccc2)c1,16%,5,?,-33%
Cc1ccccc1/C=N\NC(=O)c1ccccc1-n1cccc1,-3%,-7,?,4%
COCCCNC(=O)CN1CCN(Cc2ccccc2Cl)C1=O,2%,12,5.0%,0%
COc1cccc(C2/C(=C(/O)c3ccc4c(c3)OCO4)C(=O)C(=O)N2CCN2CCOCC2)c1 (centres undefined),-5%,nt,1.1%,0%
O=C(Oc1ccc(C(=S)N2CCOCC2)cc1)c1ccc([N+](=O)[O-])cc1,-16%,nt,0.1%,-1%
CC(CCc1ccccc1)NC(=O)C1CCCN(c2nnc(-n3cccc3)s2)C1 (centres undefined),0%,1,-1.6%,0%
COc1ccc(C=NCCC2(O)CC(C)N(C)CC2C)cc1 (centres undefined),-15%,6,-6.1%,-1%
O=C(CCNC(=O)c1ccc([N+](=O)[O-])cc1)Nc1ccc(S(=O)(=O)N2CCOCC2)cc1,0%,nt,7.6%,nt
Cc1c(Nc2scc(-c3ccccc3)[n+]2-c2ccccc2)c(=O)n(-c2ccccc2)n1C,-1%,-8,1.2%,1%
CCOc1ccc(-c2noc(CCC(=O)NCC3CCCO3)n2)cc1OC (centres undefined),-7%,nt,4.8%,-11%
CCN(CC(=O)NCc1cccs1)C(=O)/C=C/c1cccc(Br)c1,9%,nt,-1.0%,nt
CCOc1ccc(NC2C=CS(=O)(=O)C2)cc1 (centres undefined),9%,2,0.1%,-5%
N#Cc1ccccc1NC(=O)CNc1ccc(Cl)c(C(F)(F)F)c1,18%,3,-0.2%,0%
COc1cccc(/C=C/C(=O)OCC(=O)c2cc(C)n(CC3CCCO3)c2C)c1OC (centres undefined),-7%,-8,1.9%,-4%
COc1ccc(N2CCN(CC(=O)Nc3sccc3C#N)CC2)cc1,-9%,-1,-3.4%,0%
c1cc(-c2nnc(-c3ccncc3)o2)ccn1,2%,15,0.5%,-3%
Cc1c(/C=N/NC(=O)CNc2ccccc2)c2ccccn2c1C(=O)c1ccncc1,?,-4,-3.3%,-1%
CCc1nc(SCC(=O)Nc2ccc(N(CC)CC)cc2)n[nH]1,-11%,nt,0.2%,nt
CC(C)N1C(=O)C(=O)N(CC(=O)N2c3ccccc3NC(=O)CC2C)C1=O (centres undefined),-13%,nt,6.3%,nt
CC(CCc1ccccc1)NC(=O)COC(=O)c1ccc(S(C)(=O)=O)c([N+](=O)[O-])c1 (centres undefined),5%,5,-0.2%,?
O=C(c1ccc(Cl)c(S(=O)(=O)N2CCCCCC2)c1)N1CCN(c2ccccn2)CC1,-14%,1,0.5%,25%

# Next section, starting with the last two of the part before.
SMILES,Rango release inh,GLA inh pH 4.5,Rango complex inh,miR-21 reporter
CC(CCc1ccccc1)NC(=O)COC(=O)c1ccc(S(C)(=O)=O)c([N+](=O)[O-])c1 (centres undefined),5%,5,-0.2%,?
O=C(c1ccc(Cl)c(S(=O)(=O)N2CCCCCC2)c1)N1CCN(c2ccccn2)CC1,-14%,1,0.5%,25%
Cc1nn(CC(=O)O)c2ccccc12,22%,-13,1.2%,0%
CCOCC(=O)Nc1nc(C)cc(C)n1,-2%,0,-0.3%,-6%
O=[N+]([O-])c1ccc(C2=NCCO2)cc1,14%,6,0.5%,-13%
Cc1cccc(C(=O)NC(=S)N2CCN(C)CC2)c1,3%,-5,6.1%,-7%
O=C(NC1CCCCC1)Oc1ccccc1,-18%,-1,1.6%,-24%
N/C(=N\OC(=O)c1ccccc1)C(Cc1ccccc1)C(=O)NOC(=O)c1ccccc1 (centres undefined),-8%,nt,-0.1%,nt
CSc1nc(-c2ccco2)nn1C(=O)c1ccccc1Cl,-9%,1,-2.0%,0%
Cc1nc(Cl)sc1C(=O)Nc1ccc(F)cc1,5%,nt,0.0%,nt
CCN(CC(=O)Nc1sc2c(c1C#N)CCC(C)C2)Cc1nc2ccccc2c(=O)[nH]1 (centres undefined),-21%,-17,?,-12%
Cc1cc(Cl)ccc1NC(=S)NCCCO,-7%,-6,0.3%,-1%
Cc1ccccc1OCC(=O)Nc1ccncc1,-11%,nt,0.0%,1%
CN(CCc1ccccc1)C(=O)c1cccc(NC(=O)Cc2cccc(NC(=O)C3CCN(C(=O)c4ccccc4)CC3)c2)c1,1%,nt,-0.5%,nt
Oc1ccccc1N1CCN(C(=S)Nc2ccc(SC(F)F)cc2)CC1,1%,-2,0.4%,7%
Cc1ccc(OCC(=O)n2nc(C)cc2C)c(C)c1,8%,2,-1.5%,-12%
COc1ccc(C(=O)Nc2ccc(Cl)cc2C(=O)N2CCCC(C)C2)cc1OC (centres undefined),-2%,3,-1.6%,-7%
CC(=O)c1nnn(-c2cccc([N+](=O)[O-])c2)c1C,6%,2,?,7%
COc1ccc(-c2cn3cccc(C)c3n2)cc1F,0%,6,0.2%,-86%
COc1cc(C(=O)Oc2ccccc2/C=N/NC(=O)c2ccc(C)cc2)cc(OC)c1OC,-4%,8,1.4%,-22%
Cc1cccc(C(C)C)c1NC(=O)COC(=O)COc1ccc2c(C)cc(=O)oc2c1,0%,7,2.4%,3%
CC(=O)Nc1ccc(NC(=O)CCCN2C(=O)c3ccccc3C2=O)cc1,0%,1,-0.2%,-2%
CCOC(=O)CSc1nnc(COc2ccc3ccccc3c2)o1,-1%,nt,?,-6%
O=C(CSc1nnc(COc2ccccc2F)n1-c1ccccc1)NCc1ccco1,-14%,11,-0.3%,1%
Cc1ccccc1NC(=S)NCC(c1cccnc1)N1CCOCC1 (centres undefined),4%,-7,-0.4%,-6%
COc1ccc(NC(=O)CN2CCN(c3ccc(F)cc3)CC2)cc1Cl,0%,3,6.1%,3%

# Exported with the structure last: entries from further up.
Rango release inh | GLA inh pH 4.5 | Rango complex inh | miR-21 reporter | Molecule
0% | 6 | 0.2% | -86% | COc1ccc(-c2cn3cccc(C)c3n2)cc1F
0% | 1 | -0.2% | -2% | CC(=O)Nc1ccc(NC(=O)CCCN2C(=O)c3ccccc3C2=O)cc1
8% | 2 | -1.5% | -12% | Cc1ccc(OCC(=O)n2nc(C)cc2C)c(C)c1
6% | 2 | ? | 7% | CC(=O)c1nnn(-c2cccc([N+](=O)[O-])c2)c1C

# Additional results.
SMILES,Rango release inh,GLA inh pH 4.5,Rango complex inh,miR-21 reporter
N=c1oc2ccccc2cc1-c1nc2ccccc2c(=O)[nH]1,-5%,-14,-0.6%,-29%
COc1ccc(NC(=O)C2=CC(c3ccc(C)cc3)=NS(=O)(=O)N2C)cc1OC,-13%,nt,-0.8%,7%
O=c1cc(-c2ccccc2)[nH]n2cnnc12,1%,nt,-0.2%,-10%
CC(=O)N1CCN(Cc2nc3cc(NS(C)(=O)=O)ccc3n2C)CC1,7%,-1,-0.9%,0%
CCOC(=O)CCNCc1ccc(F)cc1,-2%,-27,-1.1%,-1%
CCOC(=O)N1N=C(CC)CC1(O)C(F)(F)F (centres undefined),-11%,1,0.9%,-8%
COc1ccc(C(=O)N2CCc3cc(OC)c(OC)cc3C2c2cccc([N+](=O)[O-])c2)cc1OC (centres undefined),1%,-10,-1.0%,-18%
CC(NC(=O)c1ccccc1)c1ccc(Br)cc1 (centres undefined),-7%,3,1.3%,0%
COc1ccc(C(=O)C2CCN(C(=S)NCCc3ccc(OC)c(OC)c3)CC2)cc1,-9%,-14,?,13%
CCC(C)OC(=O)C1=C(C)O[C@]23OC(N)=C(C#N)[C@]12C(=O)c1ccccc13 (some centres undefined),6%,-2,0.7%,-13%
Cn1c(SCC(=O)Nc2ccc3c(c2)OCO3)nnc1-c1cnccn1,-15%,-1,-11%,-3%
CC(=O)OCCCn1c(C)[n+](C)c2cc(Cl)c(Cl)cc21,1%,7,1.9%,-4%
O=C(NC(=S)Nc1cc(Cl)ccc1N1CCOCC1)c1ccccc1[N+](=O)[O-],18%,nt,7.3%,-1%
CC1CCN(S(=O)(=O)c2cn(C)c(=O)n(C)c2=O)CC1,-3%,4,-4.3%,-3%
Cc1cc2oc(=O)c(CC(=O)NCCCN(C)C)c(C)c2c2occ(C(C)(C)C)c12,9%,nt,1.1%,7%
CN1C(=O)[C@H]2[C@@H](C3CC3)N3C(=O)CN(Cc4ccccc4)C(=O)[C@@]3(C)[C@H]2C1=O,14%,nt,2.1%,0%
CCOc1ccccc1NC(=O)CN1CCc2ccccc2C1,8%,nt,-0.1%,4%
CNC(=S)N/N=C1\CC(c2ccccc2)Oc2ccccc21 (centres undefined),3%,-1,-4.3%,9%
O=[N+]([O-])c1cccc(/C=N/Nc2ncc(Br)cn2)c1,16%,nt,-3.7%,-45%
C=CCNC(=O)/C(C#N)=C/c1ccccc1Cl,2%,4,0.2%,0%
COc1ccc(NS(=O)(=O)c2ccc(-c3coc(C)n3)cc2)cc1,-18%,nt,-0.6%,-1%
COC(=O)[C@@H](NC(=O)NCc1cccc(OC)c1)C(C)C,5%,0,2.0%,-2%
CC(=O)Cn1cnc2c(sc3nc(C)cc(C)c32)c1=O,0%,-4,-1.8%,-20%
CCS(=O)(=O)NCc1ccc2c(c1)cc(C)n2C,-15%,6,?,-8%
COc1ccc(C2CC(=O)C(C=NCCCO)=C(O)C2)cc1 (centres undefined),-23%,nt,?,1%
CCCC(=O)Nc1nnc(S(=O)(=O)N2CCCCCC2)s1,0%,nt,0.2%,0%&-47%
O=C(C#Cc1ccccc1)Nc1ccccc1F,4%,nt,2.1%,20%
CCOC(=O)c1c(NC(=O)Cn2nnc(-c3ccc(Cl)cc3)n2)sc(C)c1C,1%,-9,-1.0%,-4%
COCCCn1c(C(=O)N2CCOCC2)cc2c(=O)n3cccc(C)c3nc21,-4%,nt,-1.5%,nt
Cn1c(C(=O)Nc2ccc3c(c2)OCCO3)cc2c(=O)n(C)c3ccccc3c21,8%,1,-3.4%,5%
Cc1ccc(NC(=O)CN2CCCCCC2)c(Br)c1,6%,0,-2.9%,-51%
CC(C)N(C(=O)COC(=O)CNC(=O)c1ccc(Br)cc1)c1ccccc1,2%,6,-3.2%,0%
CSCCC(NC(=O)c1ccco1)C(=O)O (centres undefined),6%,-4,-0.9%,-2%
NC1=NC[C@H](Cc2ccccc2)N1CCc1cc(C(F)(F)F)cc(C(F)(F)F)c1,0%,4,-2.9%,1%

# High-throughput results deposited in PubChem BioAssay by National Center for Advancing Translational Sciences (NCATS).
